CSC inhib – cancer stem cell inhibition | cancer stem cell-like cells viability, luminescence | inhibition, % at 7.5 µM | hit rate 1.1% among 300,000 | AID 2717;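 active = mean at 75% or more and at least half the replicates too; inconclusive = mean and replicates disagree; tested in HMLE shEcad cells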;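 also: 0% = median of negative and 100% = median of positive control wells; the first replicate is given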
UUG fidelity – yeast start codon fidelity modulation; S. cerevisiae UUG-firefly luciferase reporter, luminescence/redox ratio; activity score, % at 18.7 µM; hit rate 0.13% among 350,000; AID 602363;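 active = replicate mean at a twofold rise or more, about +100% in these data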;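 also: firefly luciferase made from a UUG start codon reports start codon fidelity; reporter light over untreated wells divided by growth signal over untreated wells; some hits fall short of that in this replicate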
PABP polyA inh – PABP-poly(A) binding inhibition; P11940; PABP-poly(A) RNA binding, fluorescence polarization; inhibition, % at 35 µM; hit rate 1% among 290,000; AID 2014;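 active = 50% or more with normal probe brightness, or confirmed in later tests; inconclusive = above 50% with abnormal brightness, or retests that disagree; inactive = below 50% or failed in later tests; about a fifth of its hits are not listed in these tables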;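 also: calls also rest on retests at 20 µM and on dose response follow-up; controls were probe without protein and protein plus probe with vehicle; some compounds called inactive have numbers as strong as hits; many hits fall short of the cut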
Target sequence (P11940 whole entry, looked up): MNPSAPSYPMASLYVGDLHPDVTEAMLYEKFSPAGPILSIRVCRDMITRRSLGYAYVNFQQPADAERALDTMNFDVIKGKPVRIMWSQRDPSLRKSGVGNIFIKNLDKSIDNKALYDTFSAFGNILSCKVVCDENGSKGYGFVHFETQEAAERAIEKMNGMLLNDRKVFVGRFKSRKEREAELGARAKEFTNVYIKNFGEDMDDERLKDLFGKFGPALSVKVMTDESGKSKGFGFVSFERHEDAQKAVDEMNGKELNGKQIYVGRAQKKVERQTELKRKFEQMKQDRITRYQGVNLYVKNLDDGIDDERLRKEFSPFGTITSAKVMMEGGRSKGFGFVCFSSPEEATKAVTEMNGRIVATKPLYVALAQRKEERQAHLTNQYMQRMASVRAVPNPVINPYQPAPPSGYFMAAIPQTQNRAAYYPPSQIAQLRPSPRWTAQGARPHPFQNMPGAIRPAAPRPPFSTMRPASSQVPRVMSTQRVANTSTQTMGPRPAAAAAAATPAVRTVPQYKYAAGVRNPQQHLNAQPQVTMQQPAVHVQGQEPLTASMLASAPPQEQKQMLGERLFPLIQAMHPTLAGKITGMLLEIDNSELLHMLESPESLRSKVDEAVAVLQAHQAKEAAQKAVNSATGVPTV
eIF4H FP inh – inhibitors of RNA binding by human eIF4H; AID 2012; eIF4H fluorescence polarization binding assay; inhibition, % at 35 µM; hit rate 0.94% among 290,000; Q15056;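 active = 50% or more with normal probe brightness, or confirmed in later tests; inconclusive = above 50% with abnormal brightness, or retests that disagree; inactive = below 50% or failed in later tests; about a fifth of its hits are not listed in these tables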;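 also: calls also rest on retests at 20 µM and on dose response follow-up; 0% = protein and probe with vehicle and 100% = probe without protein; strong numbers were not always called active; many hits fall short of the cut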
HIV Env fusion – blocks HIV Env-driven cell-cell fusion; HeLa-JRFL Env/CEM21 cell fusion, luciferase; inhibition, % at 12.3 µM; hit rate 1.1% among 360,000;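 active = mean replicate inhibition score of at least 50 and every replicate individually at or above 50; inconclusive = only one of the two criteria met; inactive = mean below 50 and not all replicates reaching 50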;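 also: 0% = plate neutral controls and 100% = maraviroc near 300 nM; one replicate is shown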
MT1-MMP act inh – inhibitors of human MT1-MMP activation; HT1080 RFP-PRO-GFP cells, GFP/RFP ratio fluorescence, overnight; percent of plate control window, DMSO zero; GFP/RFP ratio change, % at 20 µM; hit rate 0.061% among 360,000; AID 651647;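 active = GFP/RFP ratio change of at least 30% with cell ATP level not reduced by more than half and red fluorescence within 50% of control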; also: strong numbers were not always called active
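Assay system – RFP-PRO-GFP reporter HT1080 cells · Compound dosing – single dose of 20 µM compound, 1% DMSO final · Incubation – overnight compound exposure at 37 °C · Measure – GFP/RFP fluorescence ratio · Benchmarks – DMSO wells and RFP-L50D-GFP cells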
Rce1 inh – yeast Ras-converting enzyme inhibition; yeast membranes, quenched prenylated peptide cleavage fluorescence; AID 2563; Q03530; hit rate 0.27% among 290,000; calls only;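 active = fall in fluorescence gain of 50% or more versus controls, with final raw signal at or below 3038400; inconclusive = same 50% fall but final raw signal above 3038400; inactive = fall in fluorescence gain under 50%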;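 also: plate controls were neutral control wells for no effect and wells lacking membranes for full effect; tested at 10 µM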
eIF4H FP inh retest – also measured in eIF4H FP inh; calls as there; inhibition, %; compound at 20 µM; confirmation average;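 mean of two retest wells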
PABP polyA inh retest – second read-out of PABP polyA inh, no call of its own (marks repeat the call); inhibition, %; compound at 20 µM; confirmation repeats;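 mean of two retest wells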
MT1-MMP act inh RFP – also measured in MT1-MMP act inh; calls as there; RFP signal change, %; measured here: RFP expression control read;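 0 = vehicle wells; hits needed this value within 50% of zero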
* marks the source's active call; other numbers are inactive results; i = inactive; ? = inconclusive; . = no result given. An excerpt. The share of hits here may be higher or lower than overall.

SMILES	CSC inhib	UUG fidelity	PABP polyA inh	eIF4H FP inh	HIV Env fusion	MT1-MMP act inh	MT1-MMP act inh RFP	Rce1 inh	others
CCc1nc2c(OCc3ccc(OC(F)F)cc3)cccn2c1N(C)C(=O)c1cccs1	.	-8	.	.	23	-7	1	.
COc1cc(C(=O)OCC(=O)NCC2CCCCC2)ccc1OCC(C)C	-6	.	.	.	3	1	1	i
O=C(COC(=O)c1ccccn1)Nc1cccc(Cl)c1Cl	4	-16	1	4	-77	-3	-1	i
Cc1ccc(S(=O)(=O)N2CCN(CC(=O)N/N=C\c3ccc(O)c(O)c3)CC2)cc1	12	3	3	-3	-7	4	0	i
O=C1CCc2cc(S(=O)(=O)Nc3cccc(F)c3)cc3c2N1CC3	40	.	.	.	9	0	1	i
CC(=O)c1cccc(NC(=O)c2ccc(C)c(S(=O)(=O)N3CCOCC3)c2)c1	9	.	5	-5	5	0	-2	i
COc1cc([N+](=O)[O-])c(C)cc1NC(=O)c1ccc(OC)c(OC)c1	.	-17	.	.	-32	0	0	.
O=[N+]([O-])c1cccc(-c2ccc(/C=N/NC(=S)Nc3ccccc3)o2)c1	26	-32	8	8	.	-2	-6	i
COc1ccc(/C=N/Nc2nc(C)cc(-c3ccccc3)n2)cc1OC	-11	-5	-5	0	-11	-4	1	i
O=C(COC(=O)CCNS(=O)(=O)c1ccc2c(c1)OCCO2)NC1CCCc2ccccc21 (configuration not stated)	.	1	8	-1	-85	2	-1	i
CC(=O)N1CCSc2ccc(S(=O)(=O)NCCc3cccc(C)c3)cc21	-17	-5	5	-10	5	-1	-12	i
O=S(=O)(Cc1cc(Cl)nc(-c2cccnc2)n1)c1ccccc1	3	-22	-2	-10	.	-3	1	i
COc1ccc(-c2nn(C)c(=O)c3ccccc23)cc1NC(=O)Cn1nc(C)c2ccccc2c1=O	-9	10	-7	3	76*	11	-9	i
O=C(CCN1C(=O)/C(=C/c2ccc(F)cc2)SC1=S)NC1C=CS(=O)(=O)C1 (configuration not stated)	23	-4	.	.	-14	-4	-3	i
CC(C)CN(CCOc1cccc(N2C(=O)C3=C(CCCC3)C2=O)c1)CC(C)C	21	.	11	4	.	-5	-3	i
CCCCC(=O)NC(=S)NNS(=O)(=O)c1ccccc1	7	.	-2	1	.	0	5	i
CCOC(=O)c1ccc(Nc2cc(C)nc(N3CCOCC3)n2)cc1	.	-7	7	12	13	-7	-5	.
COc1ccc(/C=N/Nc2nnc(Cc3ccc(OC)c(OC)c3)c(=O)[nH]2)cc1OC	-9	.	-20	1	5	4	2	i
CCCCOC(=O)Oc1ccc2c(=O)c(Oc3cc(C)cc(C)c3)coc2c1	-8	.	1	-3	-5	-5	-2	i
COc1cc(C2NC(=O)C(C#N)=C(S)N2c2ccc(C)cc2)ccc1OC(C)C (configuration not stated)	8	-17	16	-1	.	1	3	i
Cc1ccc(CSCC(=O)NCc2ccc(F)cc2)cc1	6	.	5	0	-183	-1	-2	i
Nc1nc(SCC(=O)Nc2c(Br)cc([N+](=O)[O-])cc2Br)n[nH]1	-10	-23	-9	7	-3	1	1	i
CN(C1CCCCC1)S(=O)(=O)c1ccc(NC(=O)c2ccc(Br)o2)cc1	12	-20	35	1	.	-5	-7	i
NC(=O)Cc1cn(-c2ncc(C(F)(F)F)cc2Cl)c2ccccc12	-8	-1	-6	-3	.	1	-1	i
Cc1ccc(NC(=O)Nc2cccs2)nc1	-9	-10	22	17	-128	2	5	i
O=C(Nc1ccc(OCCO)cc1)c1csc([C@H]2C[C@H](O)[C@@H](CO)O2)n1	.	-1	.	.	-17	1	-1	.
CCN(CC)CC#CCC(O)(c1ccccc1)c1ccccc1	.	.	6	-5	-5	-7	-3	i
CNC(=O)CSc1nnc(NC(=O)C2CC(=O)N(c3ccccc3OC)C2)s1 (configuration not stated)	-28	-25	22	-2	-12	-3	4	i
CN1C[C@@H](CO)O[C@@H](n2cnc3c(N4CCOCC4)ncnc32)C1	.	-5	.	.	16	3	8	.
Cc1ccc(S(=O)(=O)NC(=O)Cn2nnc(-c3ccccc3)c2COc2ccc3ccccc3c2)cc1	.	-13	.	.	-11	3	5	.
CCOC(=O)Nc1ccc2c(c1)N(C(=O)CCN1CCOCC1)c1ccccc1S2=O (configuration not stated)	.	-9	1	6	27	-5	-7	i
Nc1nc(NC(=O)c2ccco2)nn1-c1ccccc1	-6	-32	4	-8	.	-1	-1	i
Cc1ccc(Cl)cc1N1CCN(C(=O)CNC(=O)c2ccc(Br)o2)CC1	2	-1	.	.	.	0	-11	.
C/C(=N\Nc1ccc2nncn2n1)c1ccco1	-11	.	4	2	-12	3	7	i
COc1cc(Cn2nnc3ccccc32)ccc1O	-19	-4	6	2	16	0	5	i
Cc1ccc(S(=O)(=O)N(C)c2ccc(OCC(=O)Nc3nnc(C4CC4)s3)cc2)cc1	.	5	2	-4	2	-2	-2	i
CN(C)CCn1c(SCc2ccccc2C#N)nc2c(sc3ccccc32)c1=O	.	-4	-1	-1	0	-4	-2	i
COC(=O)C1CCN(C(=O)CSc2nnc(-c3ccccc3)o2)CC1	6	6	.	.	4	6	3	i
O=C(CSc1nccn1-c1ccc(Cl)cc1)N1CCCc2ccccc21	-8	.	-2	3	9	-3	0	i
COc1cccc(CN(C)CC(=O)Nc2cc(S(=O)(=O)N3CCCC3)ccc2Cl)c1OC	.	-6	.	.	?	-10	-25	.
Cc1cc(Cl)ccc1OCC(=O)N(Cc1cccs1)C1CCS(=O)(=O)C1 (configuration not stated)	-2	5	4	-9	6	-1	0	i
CC(C)OC(=O)c1ccc(NC(=O)c2cncc(Br)c2)cc1	3	1	-9	-3	11	-10	-9	i
CN1CCN(c2ccc(NC(=O)c3cc(Cl)c4c(c3)OCCO4)cc2)CC1	.	-19	.	.	-13	0	7	.
O=C(NCCc1ccccn1)c1cc(-c2ccc(Cl)c(Cl)c2Cl)nc2ccccc12	-5	.	3	5	3	-5	-13	i
COCCN=c1scc(-c2cccs2)n1/N=C(\C)c1ccco1	14	-24	7	4	25	-3	0	i
CCCCCOC(=O)CSc1nnc(-c2ccccc2)c(=O)[nH]1	-8	-5	-6	-3	.	0	-2	i
N#Cc1c(N)nc(Sc2ccc(Cl)cc2)c(C#N)c1-c1ccccc1Cl	59	.	-2	15	-11	-7	-28	i
CCn1c(C)nnc1SCC(=O)NC1CCCCCC1	-4	-12	-1	94	-59	-1	-1	i	eIF4H FP inh retest=-1;PABP polyA inh retest=11
Cc1c(NC(=O)COC(=O)c2cccc(F)c2)c(=O)n(-c2ccccc2)n1C	.	-11	.	.	14	5	4	.
S=C(NCc1ccc(Cl)cc1)Nc1ccncc1	-2	-16	-21	-13	20	-4	-27	i
CCN(CC(=O)c1c(N)n(C)c(=O)n(C)c1=O)c1cccc2ccccc12	29	-12	34	8	8	0	-1	i
CCOc1ccc(N(CC(=O)Nc2cccnc2)S(=O)(=O)c2ccc(C)cc2)cc1	-4	-9	.	.	11	1	-4	i
Cc1ccc(NC(=O)CNC(=O)CC23CC4CC(CC(C4)C2)C3)c(O)c1	43	-7	.	.	5	-1	-3	i
O=C1CCC(/C=C/c2ccccc2)=NN1	18	.	12	18	25	4	4	i
O=C(N/N=C/c1ccccn1)c1ccc([N+](=O)[O-])cc1Cl	-11	-13	6	14	-21	2	3	i
COc1ccc(C2Nc3ccccc3C(=O)N2C2CCCCC2)cc1 (configuration not stated)	33	.	-9	-8	4	-4	-4	i
O=C(c1ccco1)N1CCN(C(=O)c2cc(=O)[nH]c3ccccc23)CC1	-12	-10	.	.	.	-3	2	.
Cc1cc(C)n2nc(CC(=O)NNC(=O)COc3cccc(C)c3C)nc2n1	-6	5	.	.	2	1	3	i
Cc1ccc2[nH]c(=O)c(CN(CC3COCCO3)C(=O)Nc3ccccc3F)cc2c1 (configuration not stated)	9	.	-4	-4	12	-8	-1	i
O=C(CN1C(=O)COc2ccccc21)N1CCCc2ccccc21	.	0	15	-7	.	-2	1	.

Some of these compounds in order of count of non-hydrogen atoms, descending:
SMILES	CSC inhib	UUG fidelity	PABP polyA inh	eIF4H FP inh	HIV Env fusion	MT1-MMP act inh	MT1-MMP act inh RFP	Rce1 inh	others
Cc1ccc(S(=O)(=O)NC(=O)Cn2nnc(-c3ccccc3)c2COc2ccc3ccccc3c2)cc1	.	-13	.	.	-11	3	5	.
O=C(COC(=O)CCNS(=O)(=O)c1ccc2c(c1)OCCO2)NC1CCCc2ccccc21 (configuration not stated)	.	1	8	-1	-85	2	-1	i
COc1cccc(CN(C)CC(=O)Nc2cc(S(=O)(=O)N3CCCC3)ccc2Cl)c1OC	.	-6	.	.	?	-10	-25	.
CCOC(=O)Nc1ccc2c(c1)N(C(=O)CCN1CCOCC1)c1ccccc1S2=O (configuration not stated)	.	-9	1	6	27	-5	-7	i
Cc1cc(C)n2nc(CC(=O)NNC(=O)COc3cccc(C)c3C)nc2n1	-6	5	.	.	2	1	3	i
CN1CCN(c2ccc(NC(=O)c3cc(Cl)c4c(c3)OCCO4)cc2)CC1	.	-19	.	.	-13	0	7	.
Cc1ccc(Cl)cc1N1CCN(C(=O)CNC(=O)c2ccc(Br)o2)CC1	2	-1	.	.	.	0	-11	.
CCOC(=O)c1ccc(Nc2cc(C)nc(N3CCOCC3)n2)cc1	.	-7	7	12	13	-7	-5	.
CCCCCOC(=O)CSc1nnc(-c2ccccc2)c(=O)[nH]1	-8	-5	-6	-3	.	0	-2	i
Nc1nc(SCC(=O)Nc2c(Br)cc([N+](=O)[O-])cc2Br)n[nH]1	-10	-23	-9	7	-3	1	1	i
O=C1CCC(/C=C/c2ccccc2)=NN1	18	.	12	18	25	4	4	i

(list continues)
SMILES	CSC inhib	UUG fidelity	PABP polyA inh	eIF4H FP inh	HIV Env fusion	MT1-MMP act inh	MT1-MMP act inh RFP	Rce1 inh	others
Cc1ccc(S(C)(=O)=O)cc1S(=O)(=O)Nc1cccc(Cl)c1	-19	.	-8	-5	7	3	3	i
CCOP(=O)(OCC)C(Nc1ccc(C)cc1)c1ccco1 (configuration not stated)	0	-8	-5	10	0	3	3	i
CN(CCC1CCOCC1)C(=O)CC1C(=O)NCCN1CC1CCCCC1 (configuration not stated)	-17	.	0	-2	5	8	6	i
CCOC(=O)C1CN(S(=O)(=O)c2ccccc2)CCN1S(=O)(=O)c1ccccc1 (configuration not stated)	15	-4	-2	-11	11	2	1	i
Cn1nc(-c2ccccc2)cc1NC(=O)C1CCCCC1	16	.	3	2	3	0	-1	i
CC(=O)Nc1ccc(NC(=O)C(C)OC(=O)CN(C)S(=O)(=O)c2ccc(Cl)cc2)cc1 (configuration not stated)	-15	-7	-2	4	-1	-2	-7	.
CC(Oc1ccc(Cl)cc1Cl)C(=O)N/N=C1\CCCc2ccccc21 (configuration not stated)	0	0	6	5	-1	-4	-1	i
CC1CCN(C(=S)SCc2nc(N)nc(Nc3ccccc3)n2)CC1	-2	-20	0	-5	17	1	-5	i
O=C(NNC(=S)NC(=O)c1ccccc1[N+](=O)[O-])c1ccccc1O	9	.	11	16	3	7	-5	i
CCCCCCCCn1c(=O)c(C(=O)OC)c(N)c2ccccc21	10	-19	1	-5	14	-3	-26	i
